HSD17B inh – qHTS Assay for Inhibitors of HSD17B4, hydroxysteroid (17-beta) dehydrogenase 4; 3-hydroxyacyl-CoA dehydrogenase type-2 (Homo sapiens), Q99714; recombinant HSD17B10, NADH fluorescence kinetic; many of its hits are not listed in these tables; Potency, µM (series often up to 57.1 µM), without a hit: top-dose activity change, negative = inhibition, actives largely listed as inhibitors; actives 7.6% (n = 75,000); AID 893, 2007; active = well fitted inhibition curve with a large enough effect; inconclusive = small, poorly fitted or top-dose-only effect; inactive = no such curve, though single readings can be large or run the other way;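 also: the protocol describes HADH2 (HSD17B10) and not the HSD17B4 of the title; nearly all actives have a fitted effect of over 70% in size; most hits overshoot -100% by far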
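Enzyme plus compound, 15 min room temperature; substrate mix added (NAD+ 1 mM, beta-hydroxybutyryl-CoA 90 uM final); plates read kinetically for NADH fluorescence. HADH2 was His-tagged, E. coli-derived, 20 nM.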
The depositor's hits bear a star; ? = inconclusive; [ ] = remark or other dose. % is scaled to controls: 0 for no effect and ±100 for the full control effect; potency is read from the fitted curve at half-maximal effect. An excerpt, so the mix of outcomes need not match the whole.

O=C(Nc1ccc2c(c1)OCCO2)C1CCCN(S(=O)(=O)c2cccs2)C1 (stereo not drawn)
  HSD17B inh = -9%
CCOc1nc(OCC)nc(-n2cc(-c3ccccc3)nn2)n1
  HSD17B inh = -4%
Cc1cc(NCCN2CCOCC2)n2nc(C)c(-c3ccc(Cl)cc3)c2n1
  HSD17B inh = 16µM*
Cc1onc(-c2ccccc2)c1C(=O)NC1C(=O)N2C(C(=O)O)C(C)(C)S[C@@H]12 (stereo partly drawn)
  HSD17B inh = 4%
O=C(c1cn(-c2ccccc2)nc1-c1ccc(Cl)s1)N1CCOCC1
  HSD17B inh = -5%
COc1ccc(/C=C/C2=CC3(C)CC2(C)C(c2ccc(OC)cc2)CC3=O)cc1 (stereo not drawn)
  HSD17B inh = 3%[11.4 µM]
Cc1nnc(NC2CCCCC2)[nH]c1=O
  HSD17B inh = 0%
O=C(Cn1c(C(=O)N2CCc3ccccc3C2)cc2sccc21)c1ccccc1
  HSD17B inh = -15%
Cc1cc(CNC(=O)c2cc(Br)ccc2Cl)nn1C
  HSD17B inh = 1%
c1cncc(CSc2ncnc3nc[nH]c23)c1
  HSD17B inh = 8%[11.4 µM]
O=C1c2cccnc2C(Nc2ccc(S(=O)(=O)N3CCCCCC3)cc2)N1Cc1ccccc1 (stereo not drawn)
  HSD17B inh = -9%
N#CC1=C(N)Oc2c(oc(CO)cc2=O)C1c1ccsc1 (stereo not drawn)
  HSD17B inh = -6%
C=C(C)c1cccc(C(C)(C)NC(=O)N2CCN(c3ncccn3)CC2)c1
  HSD17B inh = 1%
CCN1CCN(C(=O)Cn2ncc3c2-c2ccccc2OC3)CC1
  HSD17B inh = -2%
CN(C)CCC(=O)c1ccc(Cl)cc1
  HSD17B inh = -24%
Cn1c(C(=O)N2CCCC(C(=O)NCCN3CCOCC3)C2)cc2sccc21 (stereo not drawn)
  HSD17B inh = 13%
O=C(NCc1ccco1)c1ccccc1NC(=O)C1CC(=O)N(c2ccc(Cl)cc2)C1 (stereo not drawn)
  HSD17B inh = -24%
CC(=O)N1CCN(c2ccc(NCc3ccc(C)s3)cc2)CC1
  HSD17B inh = 0%
O=C(OCCO)c1cc(Cl)c(C(=O)OCCO)cc1Cl
  HSD17B inh = -4%
COc1ccc(CNC(=O)C(OC(C)=O)c2ccccn2)cc1 (stereo not drawn)
  HSD17B inh = 1%
COc1ccc(-n2nnc3c(=O)n(C/C=C/c4ccccc4)cnc32)cc1
  HSD17B inh = -1%
CN1CCN(S(=O)(=O)c2ccc(NC(=O)C3CCCO3)cc2)CC1 (stereo not drawn)
  HSD17B inh = 11%
O=C(CCN1CCCCC1)Nc1ccc(Br)cc1
  HSD17B inh = 5%
Cc1nnc(C)c2c(C)n(Cc3ccc4c(c3)OCO4)c(C)c12
  HSD17B inh = 20µM*
CC(C)=CC(=O)N1CCCc2ccccc21
  HSD17B inh = 4%

Cc1nn(-c2ccccc2)cc1/C=N/O
  HSD17B inh = 7%
Cc1ccc(-n2c(C)cc(C(=O)OCC(=O)N(C)C3CCS(=O)(=O)C3)c2C)cc1 (stereo not drawn)
  HSD17B inh = 8%
Cc1onc(-c2ccccc2)c1C(N)=O
  HSD17B inh = -9%
Cc1ccc(S(=O)(=O)N2CCOCC(=O)NCCOCCNC(=O)COCC2)cc1
  HSD17B inh = 2%
O=C(COc1ccc(S(=O)(=O)N2CCc3ccccc32)cc1Cl)NCc1ccccn1
  HSD17B inh = ?
O=C(NCCN1C(=O)C2C3C=CC(C3)C2C1=O)Nc1ccccc1O (stereo not drawn)
  HSD17B inh = -4%
C=CCn1nnc2sc3c(c2c1=O)CCC(C)C3 (stereo not drawn)
  HSD17B inh = -9%
O=C(Oc1ccc(Cl)c2cccnc12)N1CCCCC1
  HSD17B inh = ?
CC(C)C(c1nnnn1Cc1ccc(F)cc1)N1CCN(Cc2ccc3c(c2)OCO3)CC1 (stereo not drawn)
  HSD17B inh = 6%
CCOC(=O)Cc1csc(NC(=O)c2ccc(S(=O)(=O)N3CCCC3)cc2)n1
  HSD17B inh = -2%
O=C(COC(=O)c1cc(=O)[nH]c2ccccc12)NC(=O)NC1CCCCC1
  HSD17B inh = ?
Cc1nc2ccc(S(=O)(=O)N(C)CC(=O)N3CCc4ccccc4C3)cc2s1
  HSD17B inh = 4%
CNc1ccccc1C(=O)OCC(=O)c1ccccc1
  HSD17B inh = 31%[activator][11.4 µM]
Cc1ccc(C(=O)Nc2nncs2)cc1S(=O)(=O)N1CCOCC1
  HSD17B inh = -23%
Cc1ccc2c(CSc3nnc(C4CC4)n3N)cc(=O)oc2c1C
  HSD17B inh = -3%
COC(=O)C(C)Sc1nc2c(c(=O)[nH]c(=O)n2C)n1CCCc1ccccc1 (stereo not drawn)
  HSD17B inh = 11%
COc1cc(-c2nnc(CSc3nnc4nc(C)cc(C)n34)o2)cc(OC)c1OC
  HSD17B inh = 25µM*
COc1ccc(C(=O)N2CCN(c3nnnn3-c3ccccc3)CC2)cc1OC
  HSD17B inh = 6%
COc1ccc(Nc2cc(C)nc(N3CCOCC3)n2)cc1
  HSD17B inh = -5%
CNS(=O)(=O)c1cccc(C(=O)OCC(=O)Nc2ccccc2OC(F)F)c1
  HSD17B inh = 14%
COC(=O)c1[nH]c2ccccc2c1NS(=O)(=O)c1ccc(F)c(C)c1
  HSD17B inh = -12%
O=C1CC(NCc2ccncc2)C(=O)N1c1ccccc1 (stereo not drawn)
  HSD17B inh = ?
O=C(O)c1ccccc1NCn1c(=S)sc2ccccc21
  HSD17B inh = ?
O=C(Cn1c(=O)n(-c2ccccc2)c(=O)n1CC(=O)N1CCCCC1)N1CCCCC1
  HSD17B inh = 3%
COc1ccccc1CNC(=O)C1CCCN(S(=O)(=O)c2cccc3cccnc23)C1 (stereo not drawn)
  HSD17B inh = 3%

CCOC(=O)Nc1ccc2c(c1)N(C(=O)OCCN(C)C)c1ccccc1CC2
  HSD17B inh = 45%[activator]
O=C(c1cccc(S(=O)(=O)N2CCCC2)c1)N1CCN(c2ccccc2)CC1
  HSD17B inh = 10%
CCSc1nnc(-c2ccccc2N)c(=O)[nH]1
  HSD17B inh = 4%
O=C(O)CC1SC(=Nc2ccccc2)N(c2ccccc2)C1=O (stereo not drawn)
  HSD17B inh = 4%
O=C(NCCCn1ccnc1)c1ccc(Cl)c(S(=O)(=O)N2CCOCC2)c1
  HSD17B inh = 7%
COc1ccc(OC)c(S(=O)(=O)N2CCC(C(=O)Nc3cccc(C(F)(F)F)c3)CC2)c1
  HSD17B inh = -19%
Fc1ccc(-c2nnn(Cc3nc4ccccc4s3)n2)cc1
  HSD17B inh = -4%
CCc1cc(C(C)=O)c(O)cc1OCCCCCC(C)(C)c1nn[nH]n1
  HSD17B inh = ?
Cc1nnc(SCC(=O)Nc2ccccc2)n1CCc1ccccc1
  HSD17B inh = 6%
COc1ccc(-c2cc(=O)oc3c(C)c(OCc4nn[nH]n4)ccc23)cc1
  HSD17B inh = 9%
Cc1ccc(S(=O)(=O)N2CCN(C(=O)CN3CCOCC3)C2c2ccccc2)cc1 (stereo not drawn)
  HSD17B inh = -3%
CCOC(=O)C1CCCN(C(=O)C2c3ccccc3Oc3ccccc32)C1 (stereo not drawn)
  HSD17B inh = -3%
Nc1ccc(SC(F)(F)F)cc1C(=O)c1ccccc1
  HSD17B inh = -10%
CCOC(=O)N1CCN(S(=O)(=O)c2ccc(OCC(=O)OC)cc2)CC1
  HSD17B inh = -2%
Cn1c(=O)c2c(nc(CN3CCN(c4ccc(F)cc4)CC3)n2Cc2ccccc2F)n(C)c1=O
  HSD17B inh = -2%
CC(=O)Oc1cccc(O)c1
  HSD17B inh = 2%
Cn1c(=O)c2[nH]c(CCC(=O)O)nc2n(C)c1=O
  HSD17B inh = 4%[11.4 µM]
COc1ccc(CNc2oc(-c3ccccc3)nc2C#N)cc1
  HSD17B inh = 32µM*
Cc1noc(C)c1-c1nc(NCc2cccs2)c2ccccc2n1
  HSD17B inh = ?
CC(=O)NC1(c2ccccc2)CCN(Cc2nnnn2C(C)(C)C)CC1
  HSD17B inh = 5%
COc1ccc(-c2nnnn2C)cc1S(=O)(=O)NCc1ccccc1
  HSD17B inh = 6%
COc1cc2[nH]c(=O)n(CCC(=O)NC3CCCC3)c(=O)c2cc1OC
  HSD17B inh = 25µM*
CS(=O)(=O)c1ccc2nc(NC(=O)CCC(=O)c3cccs3)sc2c1
  HSD17B inh = -27%
C[C@H]1[C@H](C)OC(=O)C[C@H](O)C[C@H](O)C[C@H](O)CC[C@H](O)[C@H](O)CC(=O)C[C@H](O)[C@H](C(=O)O)[C@H](O)C[C@H](O[C@@H]2O[C@@H](C)[C@H](O)[C@@H](N)[C@@H]2O)C=CC=CC=CC=CCCC=CC=C[C@@](C)(O)[C@H]1O
  HSD17B inh = ?
COc1ccc(S(=O)(=O)Cc2ccc(C(=O)NC(C)C)o2)cc1
  HSD17B inh = 4%

COc1ccc(OC)c(-c2[nH]nc3c2C(c2ccco2)C(C#N)=C(N)O3)c1 (stereo not drawn)
  HSD17B inh = ?
COc1ccc(C2=NO[C@@H]3C(=O)N(c4c(C)cccc4C)C(=O)[C@H]23)cc1OC
  HSD17B inh = -4%
C#CCOC(=O)C1C2C=CC(C2)C1C(=O)O (stereo not drawn)
  HSD17B inh = -4%
COc1ccc(NC(=O)CNS(=O)(=O)c2cccc3nonc23)c(OC)c1
  HSD17B inh = -9%
CCC(C)Sc1nc2c(c(=O)[nH]c(=O)n2C)n1Cc1ccccc1Cl (stereo not drawn)
  HSD17B inh = 0%
O=C(NCCc1ccc(Cl)cc1)c1cnc2n(c1=O)CCS2
  HSD17B inh = -9%
Cc1nn2c(-n3ccnc3)c3c(nc2c1-c1ccccc1)CCC3
  HSD17B inh = -4%
O=C1c2ccccc2NC(c2ccccc2)N1Cc1ccco1 (stereo not drawn)
  HSD17B inh = 32µM*
CC(=O)c1cccc(OCC(=O)c2cc(C)n(-c3cc(C)on3)c2C)c1
  HSD17B inh = 2%
O=C(CSc1ccc2nnc(-c3ccccc3)n2n1)NCC1CCCO1 (stereo not drawn)
  HSD17B inh = 32µM*
Cc1ccc(N2CCCn3c2nc2c3c(=O)n(CC(=O)OCc3ccccc3)c(=O)n2C)cc1C
  HSD17B inh = 4%
CCOc1ccccc1N(CC(=O)NC1CCCC1)C(=O)CCC(=O)Nc1cc(C)on1
  HSD17B inh = 0%
O=C(NCc1ccco1)c1ccc(CS(=O)(=O)c2cccc(C(F)(F)F)c2)o1
  HSD17B inh = 4%
CCC(C(=O)NC1CCCC1)N(C(=O)Cn1nnc(-c2ccc(C)o2)n1)C(C)(C)C (stereo not drawn)
  HSD17B inh = 3%
COCCn1nnnc1C(c1ccc(C)cc1)N1CCN(Cc2ccc3c(c2)OCO3)CC1 (stereo not drawn)
  HSD17B inh = 12%
O=C(Nc1nc(SCc2ccc(F)cc2)ns1)c1ccco1
  HSD17B inh = ?
CO[C@H]1COC(=O)CCC[C@H](C)[C@@H](OC)COC(=O)C/C=C\[C@@H]1C
  HSD17B inh = -1%[11.4 µM]
Cc1cc(Cl)c2c(c1)[C@]1(C(=O)N2)[C@@H]2C(=O)N(Cc3ccccc3)C(=O)[C@@H]2[C@@H]2CCCN21
  HSD17B inh = -10%
CCCCC(=O)N(c1ccc(OC)cc1)C1C=CS(=O)(=O)C1 (stereo not drawn)
  HSD17B inh = 3%
Cc1cc(Cl)cc(Br)c1OCCCCn1cncn1
  HSD17B inh = -3%
N#CC(=C1CCCC1)c1nc(-c2ccccc2O)cs1
  HSD17B inh = ?
Cc1[nH]c(=O)[nH]c(=O)c1S(=O)(=O)N1CCOCC1
  HSD17B inh = 0%
CC1CCCC(NC(=O)CSc2nccn2C)C1C (stereo not drawn)
  HSD17B inh = 3%
CCOC(=O)CSc1nnc(CNC(=O)c2cccs2)n1CCc1ccccc1
  HSD17B inh = 4%
CC(=O)Nc1nc2ncc(C=O)nc2c(=O)[nH]1
  HSD17B inh = -6%[11.4 µM]

Compounds above with a tert-butyl group, in the order listed:
CC(=O)NC1(c2ccccc2)CCN(Cc2nnnn2C(C)(C)C)CC1
  HSD17B inh = 5%
CCC(C(=O)NC1CCCC1)N(C(=O)Cn1nnc(-c2ccc(C)o2)n1)C(C)(C)C (stereo not drawn)
  HSD17B inh = 3%

Remaining list, next part.
O=C(NC12CC3CC(CC(C3)C1)C2)N1CCN(c2ccccn2)CC1
  HSD17B inh = ?
CC1CN(c2nc3ccccc3nc2C(C#N)C(=O)NCc2ccc3c(c2)OCO3)CC(C)O1 (stereo not drawn)
  HSD17B inh = 5%
COC(=O)Nc1ccc(C)c(NC(=O)OC)c1
  HSD17B inh = 2%
Cc1cccc(NC(=O)CCN2C(=O)C3C4C=CC(C4)C3C2=O)n1 (stereo not drawn)
  HSD17B inh = -3%
CCCOC(=O)c1ccc(OCC(O)Cn2c(C)nc3ccccc32)cc1 (stereo not drawn)
  HSD17B inh = 4%
CCOC(=O)Cn1c(C)c(Br)c(=O)c2cccc(C)c21
  HSD17B inh = -2%
Cc1nc2cc(N3CCN(C)CC3)c(NC(=O)Cc3ccccc3)cc2c(=O)n1Cc1ccccc1
  HSD17B inh = 10%
Cc1cccc(NC(=O)c2cccs2)n1
  HSD17B inh = 0%
CC(C)Cn1c(SCC(=O)NC(=O)NC2CCCC2)nc2ccccc21
  HSD17B inh = -8%
CCn1c(CCC(=O)Nc2nc3c(s2)CCCC3)nc2cc(S(=O)(=O)N(C)C)ccc21
  HSD17B inh = -15%
CC(=O)N1C(=O)C2(C(C#N)=C(N)Oc3n[nH]c(-c4ccccn4)c32)c2ccccc21 (stereo not drawn)
  HSD17B inh = -5%

Random excerpt: three compounds from above, in no set order.
O=C(NC12CC3CC(CC(C3)C1)C2)N1CCN(c2ccccn2)CC1
  HSD17B inh = ?
Cc1cccc(NC(=O)c2cccs2)n1
  HSD17B inh = 0%
Cc1cccc(NC(=O)CCN2C(=O)C3C4C=CC(C4)C3C2=O)n1 (stereo not drawn)
  HSD17B inh = -3%

Screens as filed in PubChem.
